ugtP null kill – growth inhibition of ugtP-null S. aureus, primary screen, RN4220 ugtP deletion, OD600. growth inhibition, % (concentration not given with the values). 16 h; some inactives read as strong as hits. actives 0.54% (n = 330,000);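 active = z-score under -3 and OD600 up to 0.15 on both plates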;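 note: plate controls were untreated wells for no effect and antibiotic for full effect; wells of about 80 µL received 100 nL stock; the first replicate is given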
Mtb hypoxia rep – PubChem AID 1159583. M. tuberculosis hypoxia-regulated fluorescent reporter, fluorescence. fluorescence inhibition, % (concentration not given with the values). actives 0.1% (n = 300,000);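 active = 35 to 45% if threefold the growth effect, above 45% if 1.5-fold the growth effect; inactive = the rest, general growth blockers included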;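 note: wells of about 50 µL received 100 nL stock; 0% = vehicle wells and 100% = reference inhibitor wells; whole bacteria with a GFP reporter of the hypoxia response; strong numbers were not always called active; many hits fall short of the cut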
PrP 5UTR inh – inhibition of PrP 5' UTR reporter expression; cell-based PrP 5' UTR mRNA reporter, plate reader; inhibition, % (test concentration not listed); actives 0.35% (n = 340,000); AID 488862, 2010;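 active = every replicate at 50% or more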;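 note: 0 = median of the neutral control wells; tested in H4 reporter cells; numbers are from one replicate; inactives centre near -14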
BJeLR lethal – MLPCN primary cell-based screen for lethality selective to Ras in HRASV12 cells; BJeLR (HRASV12) viability, CellTiter-Glo ATP luminescence, 48 h; reference of the scale not given here; inhibition, % (test concentration not listed); actives 0.17% (n = 300,000); AID 1554, 2009;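 active = replicate mean above 50%; inconclusive = above 50% but judged a plate artefact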;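 note: 50 nL library stock added to about 25 µL; numbers are from one replicate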
Autofluor counter – compound fluorescence in toxin protease inhibitor counterscreen; compound autofluorescence counterscreen, microsphere flow cytometry; active compounds read high; fluorescence intensity (test concentration not listed); actives 3.1% (n = 360,000);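 active = at least 3 SD above the mean of all compounds, about 16000 in these data; inconclusive = too few beads counted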;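 note: 100 nL of 1 mM stock went into each well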
RN4220 kill – growth inhibition of S. aureus RN4220, primary screen, OD600. 16 h. inhibition, % (test concentration not listed). actives 0.33% (n = 330,000). AID 1259311, 2017;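 active = z-score of -3 or lower and OD600 up to 0.18 on both plates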;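 note: plate controls were untreated cells for no effect and reference antibiotic for full effect; stock transfer was 100 nL into about 80 µL; one replicate is shown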
Mtb hypoxia rep growth – recorded beside Mtb hypoxia rep, whose call it bears; growth inhibition, %; measured here: M. tuberculosis growth (absorbance);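 0% = vehicle and 100% = reference antibiotic; read after six days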
An asterisk follows results filed as active; u = inconclusive; x = not tested or not shown; & = joins results of further samples.

SMILES | ugtP null kill | Mtb hypoxia rep | Mtb hypoxia rep growth | PrP 5UTR inh | BJeLR lethal | Autofluor counter | RN4220 kill
C=CCn1c(SCC(=O)NC2(C)CCS(=O)(=O)C2)nc2ccccc21 (centres undefined) | 3.0 | 0.8 | 4.2 | 32.2 | x | 8516 | 4.2
CCN(C(=O)C(=O)c1c[nH]c2ccccc12)c1ccccc1 | 5.2 | 17.6 | -0.1 | -17.1 | -4.4 | x | 3.6
Cc1ccc(C)c(NC(=O)Cn2nc([N+](=O)[O-])c(Br)c2C)c1 | 4.6 | 6.4 | -4.4 | -11.9 | -22.1 | 9151 | 2.8
CCOc1ccc2nc(NC(=O)CN3CCC(n4nnc5cc(C(F)(F)F)ccc54)CC3)sc2c1 | -11.2 | 1.9 | 13.9 | -31.8 | 0.8 | 4519 | 4.5
CCCn1c(SCC(=O)Nc2ccc(C)c(S(=O)(=O)N3CCOCC3)c2)n[nH]c1=O | 7.3 | 7.6 | 3.6 | -1.4 | -1.9 | 1957 | 5.5
Cc1cc(Nc2ccc(F)cc2C)n2nc(C)nc2n1 | 6.9 | x | x | -11.3 | -3.5 | 4460 | 4.6
O=C(NN=Cc1ccc(O)cc1)c1cc(C2CC2)[nH]n1 | 1.0 | -1.0 | -4.6 | x | x | x | 2.7
COc1ccccc1NS(=O)(=O)c1ccc(OC)c(OC)c1 | 14.2 | x | x | -17.3 | -13.5 | 4447 | 4.8
O=C(CSc1nc(-c2ccccc2)nc2ccccc12)Nc1cccc(C(=O)O)c1 | 8.3 | 4.0 | -15.3 | 1.4 | 4.2 | 4471 | -4.7
CCOc1ccccc1N1CCN(C(=O)CN2C(=O)NC3(CCCC3)C2=O)CC1 | x | x | x | 0.8 | -2.8 | u | x
Cc1cccc(C(=O)N2CCCC(Nc3ccc(F)c(F)c3)C2)n1 (centres undefined) | 11.5 | 10.5 | 2.4 | -7.3 | 4.9 | u | -2.7
CC(=O)C1=C(S(=O)(=O)c2ccc(C)cc2)CS(=O)(=O)C1 | 4.7 | 9.2 | -2.3 | -44.3 | 3.8 | 4834 | 4.1
COc1cccc(C(=O)Nc2cc(C)c3c(=O)oc4ccccc4c3n2)c1 | 7.5 | -3.8 | 8.9 | -7.8 | 11.3 | 5779 | 15.9
COc1ccccc1NC(=S)N(Cc1cccnc1)Cc1ccccc1Cl | 9.7 | 3.5 | 5.0 | -21.8 | -13.0 | 4052 | 2.3
CC(NO)C(C)(C)NO (centres undefined) | 4.0 | x | x | -14.4 | -8.8 | 4315 | -1.1
Cn1c(-c2ccc(F)cc2)cnc1NCc1ccc(C#N)cc1 | -0.2 | 11.1 | 2.3 | -5.7 | -0.3 | u | 1.1
COc1ccc(C(C(=O)NC2CCCCC2)N(C(=O)CCCC(=O)Nc2ccccn2)c2ccc3c(c2)OCCO3)cc1 (centres undefined) | -4.9 | 5.3 | 16.9 | -13.5 | -2.5 | 5000 | 0.4
Oc1ccc(Br)cc1-c1cc(-c2ccccc2Cl)[nH]n1 | -15.7 | -7.0 | -9.6 | -25.4 | -3.8 | 5654 | -4.5
Cc1ccc(CNC(=O)Cn2cccc2C(=O)c2ccccc2C)cc1 | 2.2 | 2.6 | 9.8 | -33.6 | 4.0 | 4857 | 1.8
C/C=C/C=C/C(=O)N1CC2(CC(c3cccc(NC(=O)CCCCC)c3)=NO2)C[C@H]1C(N)=O (some centres undefined) | x | x | x | -0.2 | -0.3 | 3784 | x

Given with each value named: entries from further up
canonical_smiles: COc1cccc(C(=O)Nc2cc(C)c3c(=O)oc4ccccc4c3n2)c1
- ugtP null kill: 7.5
- Mtb hypoxia rep: -3.8
- Mtb hypoxia rep growth: 8.9
- PrP 5UTR inh: -7.8
- BJeLR lethal: 11.3
- Autofluor counter: 5779
- RN4220 kill: 15.9
canonical_smiles: COc1ccccc1NC(=S)N(Cc1cccnc1)Cc1ccccc1Cl
- ugtP null kill: 9.7
- Mtb hypoxia rep: 3.5
- Mtb hypoxia rep growth: 5.0
- PrP 5UTR inh: -21.8
- BJeLR lethal: -13.0
- Autofluor counter: 4052
- RN4220 kill: 2.3
canonical_smiles: CC(NO)C(C)(C)NO (centres undefined)
- ugtP null kill: 4.0
- Mtb hypoxia rep: x
- Mtb hypoxia rep growth: x
- PrP 5UTR inh: -14.4
- BJeLR lethal: -8.8
- Autofluor counter: 4315
- RN4220 kill: -1.1

Continued.
SMILES | ugtP null kill | Mtb hypoxia rep | Mtb hypoxia rep growth | PrP 5UTR inh | BJeLR lethal | Autofluor counter | RN4220 kill
O=S(=O)(Nc1nccs1)c1ccc(Cl)cc1 | 0.1 | -1.2 | -2.6 | -21.3 | 14.1 | 10597 | 6.9
COc1ccc2c(Cl)c(C(=O)NC3CCS(=O)(=O)C3)sc2c1 (centres undefined) | -3.0 | 10.1 | 3.8 | -39.6 | 2.2 | 2915 | -11.9
Cc1ccc(O)c(NC(=O)c2ccc3c(c2)C(=O)N(CC(C)C)C3=O)c1 | -4.3 | -11.6 | 4.0 | -45.5 | -25.5 | 3989 | 0.3
N/C(=N\N=C\c1cccc(O)c1)c1nonc1N | x | x | x | -58.6 | 11.2 | 2605 | x
Cc1cc(NC(=O)Nc2cc(F)ccc2F)no1 | 4.8 | 4.7 | 3.1 | -4.0 | -3.6 | 3903 | 1.1
Cc1ccc(S(=O)(=O)NCC(=O)OCC(=O)c2cc(C)n(-c3ccccc3)c2C)cc1 | 13.0 | 1.8 | 6.1 | -14.9 | -7.9 | 8128 | 6.5
COc1ccc(N2CCN(C(=O)COC(=O)/C=C/c3ccc(OC(F)F)cc3)CC2)cc1 | x | x | x | -6.7 | 2.4 | u | x
COC(=O)c1ccc2[nH]c(C)cc(=O)c2c1 | 2.7 | -5.5 | 0.5 | -5.4 | 4.7 | 2899 | 2.6
CCOC(=O)N1CCN(C(=O)CN(c2ccccc2OC)S(=O)(=O)c2ccc(OC)cc2)CC1 | 4.9 | 5.5 | 6.6 | -6.0 | -0.9 | 4373 | -1.2
CN(C)c1ccc(S(=O)(=O)N2CCCCC2)cc1NC(=O)CCNC(=O)c1ccco1 | 2.6 | 6.8 | 10.5 | x | x | u | 0.2
COc1cc(CN2CCN(c3cccc(C)c3C)CC2)cc([N+](=O)[O-])c1O | 6.5 | 17.5 | 4.3 | -23.4 | -11.7 | 3263 | 4.6
Cc1cc(-c2nnc(CCC(=O)NCCc3ccccc3F)o2)no1 | -0.5 | -0.9 | -2.9 | -17.6 | -8.7 | 4530 | 2.9
CC1CCCC(C2(O)C(=O)Nc3ccccc32)C1=O (centres undefined) | 7.8 | x | x | -19.2 | 2.3 | 2505 | -0.1
CCN(c1ccc(NC(=O)CSCc2c(C)noc2C)cc1)C(C)C | 9.4 | 4.3 | 1.1 | -21.9 | x | 3969 | 5.8
CC=CC(=O)Nc1cccc(C2=NOC3(C2)CC(C(N)=O)N(C(=O)CC(c2ccccc2)c2ccccc2)C3)c1 (centres undefined) | 6.1 | 8.5 | 8.2 | x | x | x | 10.6
Cc1ccc(S(=O)(=O)CC(=O)Nc2c(C)n(C)n(-c3ccccc3)c2=O)cc1 | 3.0 | -5.4 | 1.5 | -13.8 | 5.7 | 4006 | 6.9
COc1ccc(C(C(=O)NC2CCCCC2)N(Cc2cccs2)C(=O)Cc2c[nH]c3ccccc23)cc1OC (centres undefined) | 4.9 | 6.1 | 7.2 | 3.4 | -3.1 | 15284 | 4.1
O=S(=O)(c1ccc(Cl)cc1)N1CCN(CCc2ccccc2)CC1 | 8.6 | -10.6 | 1.1 | -5.2 | -10.4 | 6128 | -2.1
Cn1c(=O)cc(SCC(=O)N2CCCC2)c2ccc(Cl)cc21 | -1.8 | -3.6 | 0.6 | -10.7 | -5.8 | 3369 | -0.1
O=C(O)C1CCN(S(=O)(=O)N2CCOCC2)CC1 | 4.6 | 5.0 | 0.5 | -28.2 | -4.0 | 8095 | 1.7
O=C(NCCN1CCOCC1)C1CCN(c2nc3ccccc3o2)CC1 | 6.9 | -0.1 | -6.0 | -7.5 | -9.1 | 8067 | 3.7
COCCOC(=O)C1=C(C)NC(=O)NC1c1ccc(Cl)cc1 (centres undefined) | -6.1 | 3.8 | 5.1 | -9.6 | 1.5 | 13130 | 1.9
CCCCCC(=O)OCCc1c(C)nc2nc[nH]n2c1=O | -1.7 | 0.2 | -2.9 | -1.5 | x | 4746 | 6.1
COc1ccc2c(c1OC)OCC2C (centres undefined) | -1.6 | 4.2 | -4.0 | 5.9 | x | 3607 | 6.9
C[C@H](CCC(=O)O)[C@H]1CC[C@H]2[C@@H]3C(=O)C[C@@H]4CC(=O)CC[C@]4(C)[C@H]3CC(=O)[C@]12C | x | x | x | -4.6&-6.5 | 2.2 | 4292 | x
CC(C)CCNC(=O)C1CCC(=O)N1CCc1ccccc1 (centres undefined) | -0.4 | 6.0 | 9.0 | -26.8 | -5.5 | 4568 | -2.0
C=CCn1c(O)c(C(C)=NCC2CCCO2)c(=O)[nH]c1=O (centres undefined) | -5.4 | 2.4 | 15.9 | -0.1 | 11.0 | 3293 | 2.0
O=C(/C(=C(\O)c1ccccc1)c1ncc[nH]1)c1ccccc1 | 5.8 | 3.1 | 7.2 | -23.1 | 0.6 | 4040 | 5.3
CCN1CCN(C(=S)NCCc2ccccc2)CC1 | 5.5 | 2.3 | 3.9 | -18.5 | 7.9 | 15356 | 2.2
CCOC(=O)c1c(-c2ccccc2)csc1NC(=O)CSc1nc(C)cc(C)n1 | 12.6 | 9.4 | 4.8 | -2.6 | -7.8 | 2511 | -0.9
O=C(Oc1ccc(-c2csnn2)cc1)C1CC1 | -1.9 | 6.8 | 0.2 | -5.2 | 9.1 | 3953 | 3.4
CC(=O)c1cccc(NC2c3ccccc3C(=O)N2Cc2ccco2)c1 (centres undefined) | 4.7 | 0.3 | -4.5 | 2.4 | 0.7 | 3426 | 9.7
CCC(C)c1ccc(NC(=O)COC(=O)CCNC(=O)c2ccco2)cc1 (centres undefined) | 4.1 | 4.1 | 8.4 | -32.3 | x | 8624 | -0.3
OC(Cn1cncn1)(Cn1cncn1)c1ccc(F)cc1F | 7.3 | 7.1 | 2.2 | -2.1 | -2.7 | 4122 | 5.1
CC(NC(=O)C1CCCC1)c1ccc2c(c1)OCCO2 (centres undefined) | 5.6 | x | x | -4.7 | -2.9 | 4284 | 2.2
CCOc1ccc(S(=O)(=O)N2CCN(C(=S)NCc3ccccc3)CC2)cc1 | 14.6 | -3.1 | 4.0 | -12.8 | -5.6 | 3663 | -0.7
COc1ccc(OC)c(CN2CCN(C(=O)c3ccc(NS(=O)(=O)c4cccc([N+](=O)[O-])c4)cc3)CC2)c1 | -1.0 | -11.7 | -0.5 | -4.7 | -7.7 | 5540 | 1.9
Cc1ccc(NC(=O)NNC(=O)COc2ccc(Cl)cc2)cc1 | 10.0 | 6.5 | 8.3 | -3.7 | -8.6 | 4106 | 4.2
O=C(O)Cn1cc(C(=S)N2CCCCC2)c2ccccc21 | -9.3 | 3.3 | 10.7 | -16.8 | x | u | -2.2
CC(C)(C)OC(=O)NNC(=O)c1ccc(Cl)cc1 | -2.4 | x | x | -27.9 | -8.8 | 2498 | 0.3
O=C(CCc1ccc(S(=O)(=O)N2CCOCC2)cc1)NN=C1CCCCCCC1 | 4.0 | 1.5 | 3.2 | -22.8 | 1.3 | 2119 | 1.8
CCC(CC)C1C(C#N)=C(N)SC(N)=C1C#N | -6.6 | 7.5 | 8.9 | 8.5 | -4.3 | 4296 | 6.0
O=C1C(=O)N(CCOCCO)C(c2ccccn2)/C1=C(\O)c1ccccc1 (centres undefined) | -0.7 | x | x | -14.9 | -2.2 | 3263 | -1.6
Cc1ccc(CSCCNC(=O)CN(c2ccc(F)cc2)S(C)(=O)=O)cc1 | -2.3 | 17.7 | 6.6 | -16.9 | -8.5 | 4197 | 5.3
COc1ccc(OCC(=O)OCCN(C)C)cc1 | 11.3 | x | x | -8.1 | -1.4 | 2139 | 1.9
COc1ccc(S(=O)(=O)Nc2c(C)nc3nc(C)[nH]n3c2=O)cc1 | 11.7 | 7.8 | 6.6 | -16.6 | -2.0 | 2954 | 7.1
CC(C)(CNC(=O)c1cc(=O)[nH]c2ccccc12)N1CCOCC1 | -2.2 | x | x | -16.8 | -3.1 | 2423 | 1.2
Cn1nnc2cc(C(=O)NCc3ccc4c(c3)OCO4)ccc21 | 3.8 | x | x | -32.2 | 1.6 | 4150 | 2.5
CCN1CCCC1CNC(=O)c1cc2cc(F)ccc2[nH]1 (centres undefined) | 6.0 | 6.2 | 10.4 | -30.1 | 0.1 | 4760 | 3.6

Screens from PubChem.
